From PubChem
FGF22 binding = FGF22 (human) thermal shift binding | Q9HCT0 | recombinant FGF22 thermal shift, SYPRO orange fluorescence; percent of sucrose octasulfate shift, DMSO zero | calls only at 9.99 µM | actives 1.5% (n = 340,000) | AID 651658;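 active = melting point raised past a set limit in the mean and every replicate; three in four hits are not shown here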
Target sequence (Q9HCT0 whole entry, looked up): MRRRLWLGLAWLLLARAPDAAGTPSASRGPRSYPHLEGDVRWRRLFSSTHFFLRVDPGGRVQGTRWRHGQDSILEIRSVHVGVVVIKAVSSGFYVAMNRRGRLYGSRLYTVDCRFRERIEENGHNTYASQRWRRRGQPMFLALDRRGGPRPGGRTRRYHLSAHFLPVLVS
rRNA inh HTS = inhibits bacterial ribosomal RNA function over humanized ribosomes | E. coli WT GFP vs humanized-ribosome RFP mutants, fluorescence, 24 h; hits give low values; DMSO median 0, no signal -100 | GFP signal change (wild-type ribosome), % (concentration not given with the values) | actives 1.6% (n = 350,000);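 active = significant combined selectivity score with lowered wild-type GFP, culture density cut under 30%, mutant RFP and density less affected; inactive = any of these conditions unmet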; note: one replicate is shown; some compounds called inactive have numbers as strong as hits
rRNA inh HTS OD600 = further read-out of rRNA inh HTS, marked with its call; OD600 change, %; measured here: OD600 growth;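 optical density of the mix in the first replicate; 0 = DMSO median and -100 = no signal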
rRNA inh HTS RFP = recorded beside rRNA inh HTS, whose call it bears; RFP signal change, %; measured here: RFP humanized mutant strains;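 first replicate; 0 = DMSO median and -100 = no signal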
Numbers without * were called inactive; i = inactive; + = active, no number; & = joins results of further samples; ! = not confirmed by another sample. Some of the compounds tested. The share of hits here may be higher or lower than overall.

FGF22 binding	rRNA inh HTS	rRNA inh HTS OD600	rRNA inh HTS RFP	molecule
i	-3	0	-0.6	CCCNC(=O)N1C[C@@H]2[C@H](c3ccccc31)[C@@H](CO)N2Cc1cc(F)ccc1F
i	0	9	1.0	Cc1ccc(S(=O)(=O)Nc2cccc3c2O[C@@H](CN(C)Cc2ccccc2)[C@H](C)CN([C@H](C)CO)C3=O)cc1
i	2	3	-2.3	C[C@@H]1CN([C@@H](C)CO)C(=O)c2cccc(NC(=O)C3CC3)c2O[C@H]1CN(C)S(=O)(=O)c1ccccc1
i	-57	-76	-12	OC[C@@H]1[C@H](c2ccc(-c3cccc(F)c3)cc2)[C@@H]2CN(CCC(F)(F)F)CCCCN12
i	4	3	-3.8	CCC(=O)N1CC2(C1)CN(C(C)=O)[C@@H](CO)c1[nH]c3cc(OC)ccc3c12
i	-1	-6	1.8	O=C([C@@H]1[C@@H](CO)[C@@H]2Cn3c(cccc3=O)[C@H]1N2CCC(F)(F)F)N1CCCCC1
i	1	8	-1.5	C/C=C/c1ccc([C@H]2[C@H](C#N)N(c3nc(-c4ccccc4)cs3)[C@H]2CO)cc1
i	0	4	-0.5	Cc1ccc(S(=O)(=O)Nc2ccc3c(c2)C(=O)N([C@@H](C)CO)C[C@H](C)[C@@H](CN(C)C(=O)Nc2ccc(F)cc2)O3)cc1
i	3	-2	0.5	C[C@H](CO)N1C[C@H](C)[C@H](CN(C)S(C)(=O)=O)Oc2ccc(NC(=O)Nc3ccc4c(c3)OCO4)cc2C1=O
i	1	6	-1.6	C[C@@H]1CN([C@H](C)CO)C(=O)Cc2cc(NC(=O)C3CC3)ccc2O[C@@H]1CN(C)Cc1ccc(C(=O)O)cc1
i	1	6	-0.2	O=C(C[C@@H]1C=C[C@H](NS(=O)(=O)c2ccc(F)cc2)[C@@H](CO)O1)NCc1ccncn1
i	-7	-1	4.9	COCC(=O)Nc1ccc2c(c1)[C@@H]1C[C@@H](CC(=O)NCc3ccc(Cl)cc3)O[C@@H](CO)[C@@H]1O2
i	1	-1	0.1	COCC(=O)N1[C@H](C#N)[C@H](c2ccc(C3=CCCCC3)cc2)[C@@H]1CO
i	4	8	-2.5	C[C@H]1CCCCO[C@@H](CN(C)C(=O)c2ccncc2)[C@@H](C)CN([C@@H](C)CO)C(=O)c2cc(NC(=O)CCC(F)(F)F)ccc2O1
i	-4	-14	-2.0	Cc1noc(C)c1S(=O)(=O)N(C)C[C@H]1Oc2ccc(NS(=O)(=O)c3ccc(Cl)cc3)cc2C(=O)N([C@H](C)CO)C[C@H]1C
i	-5	-6	5.1	COCC#Cc1ccc2c(c1)O[C@H](CN(C)S(=O)(=O)c1cccc(OC)c1)[C@@H](C)CN([C@@H](C)CO)S2(=O)=O
i	1	2	1.3	CN(C)C(=O)c1ccc(-c2ccc([C@@H]3[C@@H](C#N)N(C(=O)C4CCCC4)[C@H]3CO)cc2)cc1
i	3	-5	8.5	Cc1ccccc1-c1ccc([C@H]2[C@@H](CO)N3CCCCN(CC4CC4)C[C@H]23)cc1
i	2	2	2.2	CS(=O)(=O)N1CCCCN2[C@H](C1)[C@@H](c1ccc(-c3cccc(C#N)c3)cc1)[C@@H]2CO
i	-2	-12	0.3	CO[C@H](CN(C)C(=O)C1CCOCC1)[C@H](C)CN(C(=O)Nc1ccc(F)cc1)[C@@H](C)CO
i	-1	6	-0.3	CNC[C@H]1Oc2ccc(NC(=O)Nc3cccc4ccccc34)cc2C(=O)N([C@@H](C)CO)C[C@@H]1C
i	1	2	0.6	O=C(NCC[C@@H]1CC[C@H](NC(=O)c2ccccc2F)[C@@H](CO)O1)c1cnccn1
i	1	-9	0.7	CO[C@H]1CN(C)C(=O)c2cc(NC(=O)C3CCC3)ccc2OC[C@H](C)N(CC2CCCCC2)C[C@H]1C
i	-1	8	4.8	Cc1ccccc1-c1ccc2c(c1)[C@@H]1C[C@H](N(C)C(=O)c3ccco3)[C@H]([C@H](C)O)CN1CC2
i	-5	6	-1.5	C[C@H]1CN([C@@H](C)CO)S(=O)(=O)c2ccc(-c3cccnc3)cc2O[C@@H]1CN(C)C(=O)c1cccc(F)c1
i	-2	2	-1.8	C[C@H]1CN([C@@H](C)CO)C(=O)c2cc(NC(=O)Nc3ccccc3)ccc2O[C@H]1CN(C)C(=O)Nc1ccccc1
i	4	-8	-4.6	C[C@H]1CN([C@@H](C)CO)C(=O)c2cc(C#CC3(O)CCCC3)cnc2O[C@@H]1CN(C)Cc1cncnc1
i	2	0	-0.6	CO[C@H]1CN(C)C(=O)c2cc(NC(=O)c3nc4ccccc4s3)ccc2OC[C@@H](C)NC[C@@H]1C
i	2	4	-1.6	O=C(C1CCC1)N1C[C@H]2[C@@H](c3ccccc31)[C@@H](CO)N2C(=O)c1ccccc1F
i	-2	-4	5.9	CC(C)CC#Cc1cnc2c(c1)C(=O)N([C@@H](C)CO)C[C@@H](C)[C@@H](CN(C)C(=O)Nc1cc(F)ccc1F)O2
i	1	0	0.1	COCC(=O)Nc1ccc2c(c1)OC[C@@H](C)N(C(=O)c1cccnc1)C[C@H](C)[C@H](OC)CN(C)C2=O
i	-4	1	-0.4	COC(=O)C[C@@H]1CC[C@H]2[C@@H](COc3ccc(NC(=O)c4cccc(Cl)c4)cc3C(=O)N2C)O1
i	-37	-66	7.5	O=C(C[C@H]1C[C@@H]2c3cc(NC(=O)Nc4ccc(C(F)(F)F)cc4)ccc3O[C@@H]2[C@@H](CO)O1)NCc1cccnc1
i	0	2	-2.3	CC=Cc1ccc2n(c1=O)C[C@@H]1[C@@H](CO)[C@H](C(=O)NCCC)[C@H]2N1C(=O)Nc1cc(F)ccc1F (mixture of isomers)
i	-2	-3	-1.1	CO[C@@H]1CN(C)C(=O)c2cc(NC(C)=O)ccc2OC[C@@H](C)N(S(=O)(=O)c2cn(C)cn2)C[C@H]1C
i	0	3	2.2	C[C@@H]1CN([C@@H](C)CO)C(=O)Cc2cc(NC(=O)Cc3ccccc3)ccc2O[C@@H]1CN(C)Cc1ccc(C(F)(F)F)cc1
i	3	0	2.3	O=C(CC1CC1)N1CC2(C1)[C@H](c1ccccc1)[C@@H](CO)N2Cc1ccc(F)cc1
i	1	2	-2.1	CCCN1C[C@H](C)[C@@H](OC)CN(C)C(=O)c2ccc(NC(=O)C3CC3)cc2OC[C@H]1C
i	3	0	-3.4	C[C@@H]1CCCCO[C@H](CN(C)Cc2ccc(C(F)(F)F)cc2)[C@@H](C)CN([C@H](C)CO)C(=O)c2cc(NC(=O)CCC(F)(F)F)ccc2O1
i	0	20	-2.2	CCCNC(=O)N(C)C[C@H]1Oc2cc(-c3ccncc3)ccc2S(=O)(=O)N([C@H](C)CO)C[C@H]1C

Three compounds already listed, arranged by the value under rRNA inh HTS OD600, low to high:
FGF22 binding	rRNA inh HTS	rRNA inh HTS OD600	rRNA inh HTS RFP	molecule
i	-57	-76	-12	OC[C@@H]1[C@H](c2ccc(-c3cccc(F)c3)cc2)[C@@H]2CN(CCC(F)(F)F)CCCCN12
i	1	0	0.1	COCC(=O)Nc1ccc2c(c1)OC[C@@H](C)N(C(=O)c1cccnc1)C[C@H](C)[C@H](OC)CN(C)C2=O
i	-5	6	-1.5	C[C@H]1CN([C@@H](C)CO)S(=O)(=O)c2ccc(-c3cccnc3)cc2O[C@@H]1CN(C)C(=O)c1cccc(F)c1

Continued.
FGF22 binding	rRNA inh HTS	rRNA inh HTS OD600	rRNA inh HTS RFP	molecule
+!	-1&-5&-6	3&-6&-12	-1.1&-0.8&0.0	CN1C(=O)c2cc(NC(=O)c3cccc(F)c3)ccc2OC[C@@H]2O[C@H](CC(=O)NCC3CCCCC3)CC[C@@H]21
i	7	7	-1.5	C[C@@H]1CCCCO[C@@H](CN(C)C(=O)Nc2ccc(C(F)(F)F)cc2)[C@H](C)CN([C@@H](C)CO)C(=O)c2cc(NC(=O)NC3CCCCC3)ccc2O1
i	2	0	0.1	COc1ccc(S(=O)(=O)Nc2ccc3c(c2)CC(=O)N([C@@H](C)CO)C[C@H](C)[C@@H](CN(C)C(=O)Nc2ccc(F)cc2)O3)cc1
i	0	9	0.0	C[C@H]1CN([C@@H](C)CO)C(=O)c2ccccc2-c2ccccc2CO[C@@H]1CN(C)C(=O)Nc1ccccc1
i	-1	-5	-4.9	COc1cccc(S(=O)(=O)N[C@H]2CC[C@H](CCn3cc(-c4ccccc4)nn3)O[C@H]2CO)c1
i	0	5	-1.1	C[C@H](CO)N1C[C@H](C)[C@@H](CN(C)S(=O)(=O)c2ccc(F)cc2)Oc2c(NC(=O)c3ccc(-c4nccs4)cc3)cccc2C1=O
i	-3	-12	-1.1	COCCNC(=S)N(C)[C@H]1C[C@H]2c3[nH]c4c(-c5ccc6c(c5)OCO6)cccc4c3CCN2C(=O)[C@H]1[C@H](C)O
i	-1	1	0.2	CC(C)NC(=O)NCC[C@@H]1CC[C@@H](NC(=O)CCN2CCCCC2)[C@H](CO)O1
i	-1	4	1.6	C[C@H]1CN([C@@H](C)CO)C(=O)c2cccc(NC(=O)c3ccc(-c4nccs4)cc3)c2O[C@@H]1CN(C)S(=O)(=O)c1cccs1
i	-50	-74	-11	CC(C)CC#Cc1cnc2c(c1)C(=O)N([C@H](C)CO)C[C@H](C)[C@@H](CN(C)Cc1ccccc1F)O2

Compounds above that contain a Cl atom (three):
FGF22 binding	rRNA inh HTS	rRNA inh HTS OD600	rRNA inh HTS RFP	molecule
i	-7	-1	4.9	COCC(=O)Nc1ccc2c(c1)[C@@H]1C[C@@H](CC(=O)NCc3ccc(Cl)cc3)O[C@@H](CO)[C@@H]1O2
i	-4	-14	-2.0	Cc1noc(C)c1S(=O)(=O)N(C)C[C@H]1Oc2ccc(NS(=O)(=O)c3ccc(Cl)cc3)cc2C(=O)N([C@H](C)CO)C[C@H]1C
i	-4	1	-0.4	COC(=O)C[C@@H]1CC[C@H]2[C@@H](COc3ccc(NC(=O)c4cccc(Cl)c4)cc3C(=O)N2C)O1

(list continues)
FGF22 binding	rRNA inh HTS	rRNA inh HTS OD600	rRNA inh HTS RFP	molecule
i	-3	-2	2.4	COc1ccccc1-c1cnc2c(c1)C(=O)N([C@@H](C)CO)C[C@H](C)[C@H](CN(C)Cc1cccc(F)c1)O2
i	-3	1	-1.3	O=S(=O)(N[C@H]1CC[C@H](CCn2cc(-c3cccnc3)nn2)O[C@H]1CO)c1ccc(F)cc1
i	4	-6	0.7	O=C(CC1CC1)Nc1ccc2c(c1)[C@@H]1C[C@@H](CC(=O)N3CCCCC3)O[C@H](CO)[C@@H]1O2
i	1	3	-0.8	CO[C@H]1CN(C)C(=O)c2ccc(NS(=O)(=O)CC(F)(F)F)cc2OC[C@@H](C)NC[C@H]1C
i	1	-3	-1.5	C[C@H]1CN([C@@H](C)CO)C(=O)c2cccc(NC(=O)Nc3ccc(C(F)(F)F)cc3)c2O[C@H]1CN(C)S(=O)(=O)c1ccc(F)cc1
i	2	0	-3.9	COc1ccc(NC(=O)N[C@@H]2CC[C@@H](CCn3cc(-c4ccccc4)nn3)O[C@H]2CO)cc1
i	3	5	-3.1	C[C@H]1CN([C@@H](C)CO)C(=O)c2cc(Br)cnc2O[C@H]1CN(C)C(=O)C1CCOCC1
i	3	6	-1.0	Cc1noc(C)c1NC(=O)N(C)C[C@@H]1Oc2ccc(NC(=O)CCCCCC(=O)Nc3ccccc3N)cc2CC(=O)N([C@@H](C)CO)C[C@@H]1C
i	-1	2	1.9	CO[C@H]1CN(C)C(=O)c2ccc(NC(=O)Nc3cccc(F)c3)cc2OC[C@@H](C)N(C(=O)Nc2c(C)noc2C)C[C@H]1C
i	2	5	2.9	CN(C)C(=O)C[C@H]1CC[C@H]2[C@@H](COC[C@@H](O)CN2C(=O)C2CCCC2)O1
i	5	6	-0.7	C[C@@H]1CCCCO[C@@H](CN(C)C(=O)CCCN(C)C)[C@@H](C)CN([C@H](C)CO)C(=O)c2cc(NS(=O)(=O)c3ccc(F)cc3)ccc2O1
i	-5	-25	18	C[C@H](CO)N1C[C@H](C)[C@@H](CN(C)CC2CCCCC2)Oc2ccc(NC(=O)C3CCCCC3)cc2CC1=O
i	3	5	-0.3	CN1CCN(C(=O)C[C@@H]2CC[C@@H]3[C@@H](COc4ccc(NC(=O)C5CC5)cc4C(=O)N3C)O2)CC1
i	0	-3	-1.1	CCCNC(=O)C[C@H]1CC[C@H]2[C@H](COc3ccc(NS(=O)(=O)CC)cc3C(=O)N2C)O1
i	5	5	-2.5	CCCN(C)C[C@@H]1Oc2ncc(-c3cccc(OC)c3)cc2C(=O)N([C@H](C)CO)C[C@@H]1C
i	-5	-6	-2.8	C[C@@H]1CN([C@H](C)CO)C(=O)c2cc(NC(=O)Nc3ccccc3)ccc2O[C@@H]1CN(C)C(=O)NC1CCCCC1
i	7	7	-0.2	C[C@H](CO)N1C[C@H](C)[C@H](CN(C)C(=O)Nc2ccc(F)cc2)Oc2ccc(NC(=O)Cc3cn(C)c4ccccc34)cc2CC1=O
i	3	4	-1.2	CO[C@H]1CN(C)C(=O)c2ccc(NC(=O)C3CC3)cc2OC[C@H](C)N(C)C[C@@H]1C
i	1	-8	-1.3	Cc1noc(C)c1NC(=O)Nc1ccc2c(c1)C(=O)N([C@@H](C)CO)C[C@H](C)[C@H](CN(C)Cc1ccncc1)O2
i	2	6	-1.2	O=C(C1CCOCC1)N1[C@@H](CO)[C@@H](c2ccccc2)C12CN(Cc1cccnc1)C2

Quoted at random: 2 records from the list, in no set order.
FGF22 binding	rRNA inh HTS	rRNA inh HTS OD600	rRNA inh HTS RFP	molecule
i	3	5	-0.3	CN1CCN(C(=O)C[C@@H]2CC[C@@H]3[C@@H](COc4ccc(NC(=O)C5CC5)cc4C(=O)N3C)O2)CC1
i	3	4	-1.2	CO[C@H]1CN(C)C(=O)c2ccc(NC(=O)C3CC3)cc2OC[C@H](C)N(C)C[C@@H]1C
